Assay outcomes deposited in PubChem by several laboratories.
HSV augment: enhancers of HSV replication in host cells, fold increase, host cell viability; 220,000 tested, 0.005% active; maximum fold increase; HSV replication augmentation in cells;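 active = peak rise of 1.5-fold or more in the series; inconclusive = self-fluorescent or not available for retest; tested in PC3 cells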;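 note: first round at 10 µM; read as green reporter fluorescence; hits show the peak of a series up to 25 µM; 1 = signal of infected wells without compound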
PKD1 kinase inh: inhibitors of human PKD1 kinase, biochemical, fluorescence polarization; PKD1 kinase fluorescence polarization assay; Serine/threonine-protein kinase D1 (Homo sapiens), Q15139; inhibition, %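 (about 10 µM by stock and volumes)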; 200,000 tested, 0.056% active;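 active = inhibition of 50% or more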;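 note: controls were vehicle for no effect and a reference inhibitor for full effect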
Insulin prom inh: inhibitors of insulin promoter-driven GFP, primary screen, imaging, TRM-6 cells (human fetal islet line), eGFP reporter, cell count; inhibition, % at 2 µM; reporter expression induced with tamoxifen; 130,000 tested, 0.9% active;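 active = inhibition above the mean plus 3 SD, with well images judged a real hit on visual review, cut at about 60% in these data, passing the limit was not always enough; inconclusive = inhibition over the cutoff but images rejected on review; inactive = inhibition not above the cutoff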
RGS16-Gao: modulators of RGS16 binding to Galphao, primary screen, biochemical, human proteins, multiplexed bead flow cytometry. bead-based flow cytometry RGS16-Galphao binding, fluorescence; actives lie on both sides. 220,000 tested, 0.38% active. AID 1441, 2008. binding response (% of control), % at 10 µM;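 active = below 25% or above 175%, edge rows of some plates excepted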;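 note: Galphao activated by GDP with aluminum fluoride before binding; 100% = wells without compound and 0% = beads without RGS; some results beyond the cut were filed as inactive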
Target sequence (O15492 whole entry, looked up): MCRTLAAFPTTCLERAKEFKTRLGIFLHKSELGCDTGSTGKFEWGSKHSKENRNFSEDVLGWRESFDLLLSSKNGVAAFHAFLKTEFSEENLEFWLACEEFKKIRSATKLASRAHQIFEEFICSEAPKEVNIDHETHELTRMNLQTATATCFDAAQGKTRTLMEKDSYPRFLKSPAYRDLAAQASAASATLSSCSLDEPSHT
Target sequence (P09471 whole entry, looked up): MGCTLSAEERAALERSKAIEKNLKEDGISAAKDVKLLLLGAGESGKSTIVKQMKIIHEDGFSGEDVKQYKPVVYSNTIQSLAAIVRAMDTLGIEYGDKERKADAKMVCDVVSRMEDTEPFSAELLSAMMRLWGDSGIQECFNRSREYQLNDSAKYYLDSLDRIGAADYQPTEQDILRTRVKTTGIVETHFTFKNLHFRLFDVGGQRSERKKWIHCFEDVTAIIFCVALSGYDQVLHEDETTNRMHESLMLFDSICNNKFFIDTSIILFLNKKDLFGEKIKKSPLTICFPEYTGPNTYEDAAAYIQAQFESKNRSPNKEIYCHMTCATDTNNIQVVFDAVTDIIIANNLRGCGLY
GALR2 ag: GALR2 receptor agonists, primary screen, cell-based; activation, %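 (tested at 5 µM)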; GALR2-expressing cells, agonist activation read-out; 140,000 tested, 0.48% active;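 active = above mean plus 3 SD of all compounds, about 5% in these data, not always enough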;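 note: 0% = vehicle buffer wells and 100% = reference agonist at full effect; tested in CHO reporter cells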
Target sequence (O43603 whole entry, looked up): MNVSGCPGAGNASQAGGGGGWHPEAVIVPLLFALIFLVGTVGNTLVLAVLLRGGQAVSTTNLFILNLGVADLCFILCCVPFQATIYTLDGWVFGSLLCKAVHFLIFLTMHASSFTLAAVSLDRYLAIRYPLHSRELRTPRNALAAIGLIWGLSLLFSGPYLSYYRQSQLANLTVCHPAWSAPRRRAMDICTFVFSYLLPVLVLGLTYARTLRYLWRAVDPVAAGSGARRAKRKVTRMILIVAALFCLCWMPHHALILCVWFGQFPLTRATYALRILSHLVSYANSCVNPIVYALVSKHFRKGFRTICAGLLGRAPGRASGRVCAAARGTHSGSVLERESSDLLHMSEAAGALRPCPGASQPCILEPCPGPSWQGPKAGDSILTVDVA
Insulin prom inh cell count: further read-out of Insulin prom inh, marked with its call; normalized cell count, %; measured here: cell count, toxicity; reference of the scale not given here;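 cells exposed to compound for 48 h; stained nuclei by imaging scaled within each plate; lower means fewer cells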
HSV augment primary fold: recorded beside HSV augment, whose call it bears; fold increase; compound at 10 µM; measured here: primary screen fold increase 10 uM; tested in PC3 cells;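 GFP signal in the first replicate; 1 = infected wells without compound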
An asterisk follows results filed as active; i = inactive; ? = inconclusive; . = not tested or not shown.

SMILES	HSV augment	HSV augment primary fold	PKD1 kinase inh	Insulin prom inh	Insulin prom inh cell count	RGS16-Gao	GALR2 ag
CCOC(=O)c1c(C)n(-c2ccc(C)cc2)c2ccc(O)c(CN(C)C)c12	i	0.63	6	-53	123	101	.
CCOc1cc(C(=O)NCCc2ccc(S(N)(=O)=O)cc2)cc(OCC)c1OCC	i	1.1	.	.	.	96	.
CCOc1ccc(NCc2nnc(SCC(=O)Nc3cc(C)on3)n2-c2ccccc2OC)cc1	i	0.55	0	-365	35	109	-2.7
Cn1c(NN)nc2ccccc2c1=O	i	1.1	-1	.	.	100	.
S=C(Nc1ccccc1)N1CCOCC1	i	1	3	.	.	107	.
Cc1ccc(-c2c(C(=O)N3CCOCC3)oc(=O)c3ccccc23)cc1	i	0.87	-12	.	.	102	0.6
COCCNS(=O)(=O)c1ccc(SC)cc1	i	0.98	-5	25	43	60	0.3
CNC(=S)n1cnc(N)n1	i	0.88	.	.	.	101	.
CC(=O)N(c1ccccc1)c1nc(C)cc(C)c1C#N	i	0.91	-10	6	69	125	-4.2
CC1(C)Cc2c(sc3[nH]c(=S)n(Cc4ccccc4)c(=O)c23)CO1	i	0.97	-10	-379	39	63	-1.2
O=C(/C=C/Nc1ccccc1Br)c1ccccn1	i	0.97	-9	14	48	95	0.5
O=C(COC(=O)c1ccc2[nH]c3c(c2c1)CCCC3)NC1CCS(=O)(=O)C1 (centres undefined)	i	0.86	-13	-33	131	107	.
CCOCCCNC(=S)N1CCN(C(=O)C(=O)Nc2ccc(C(=O)OC)cc2)CC1	i	0.97	-2	-6	137	105	0.6
CN(C)CCCNc1ncnc2scc(-c3ccccc3)c12	i	0.89	2	-27	64	113	.
Nc1nnc(CSCc2ccc(Cl)cc2Cl)s1	i	1	7	-32	73	85	0.9
Cc1cc(C)nc(-n2nc(C)cc2NC(=O)CN2CCC(C)CC2)n1	i	0.86	-7	9	54	93	0.1
Cc1cc(C)n(C(=O)C(C(=O)c2ccccc2)C(C)C)n1 (centres undefined)	i	1	9	-54	99	96	-0.3
Cc1noc(C)c1COC(=O)c1cc2c3ccccc3n(C)c2s1	i	0.96	-7	.	.	99	-3.1
Cc1cnc(-c2nnc(N(C)C(=O)C3CCCO3)s2)cn1 (centres undefined)	i	0.93	5	.	.	-47*	-2.2
CN1C(=O)CC(Sc2ccccc2C(=O)O)C1=O (centres undefined)	i	1.1	-13	-11	61	100	-1.6
CCOC(=O)CNC(=O)c1cc(-c2ccc3c(c2)OCCO3)oc1C	i	0.89	4	59	61	96	1.5
COc1ccc(-c2noc(CCC(=O)Nc3nc4ccccc4s3)n2)cc1	i	1.1	-3	-47	82	87	-2.3
COc1cc(-c2noc(-c3cccs3)n2)cc(OC)c1OC	i	0.81	-9	46	129	113	-1.6
Cc1ccc(CNC(=O)C2CCN(S(=O)(=O)N3CCOCC3)CC2)cc1	i	0.89	-15	.	.	83	-2.0
COc1ccc(C(=O)c2cc3cccc(OC)c3o2)cc1	i	0.85	3	.	.	97	.
CS(=O)(=O)Nc1ccc(C(=O)Nc2ccc3c(c2)OCO3)cc1	i	1.1	-2	-17	84	112	.
C/C(=N\NC(=O)c1cccc(F)c1)c1ccc(Br)s1	i	0.73	-9	19	92	104	-2.0
O=C(CN1CCN(c2ncc(C(F)(F)F)cc2Cl)CC1)NCCNc1ncc(C(F)(F)F)cc1Cl	i	0.86	2	.	.	101	-0.6
COC(=O)c1ccc(C)c(NS(=O)(=O)c2ccc(NC(C)=O)cc2)c1	i	0.94	-8	6	152	104	-0.2
COc1ccc(NC(=S)N2CCCC2c2ccc(OC)c(OC)c2)cc1 (centres undefined)	i	0.88	-4	-12	131	101	.

3 records drawn at random from the list so far:
SMILES	HSV augment	HSV augment primary fold	PKD1 kinase inh	Insulin prom inh	Insulin prom inh cell count	RGS16-Gao	GALR2 ag
Cc1cc(C)n(C(=O)C(C(=O)c2ccccc2)C(C)C)n1 (centres undefined)	i	1	9	-54	99	96	-0.3
COc1cc(-c2noc(-c3cccs3)n2)cc(OC)c1OC	i	0.81	-9	46	129	113	-1.6
CS(=O)(=O)Nc1ccc(C(=O)Nc2ccc3c(c2)OCO3)cc1	i	1.1	-2	-17	84	112	.

Next results follow.
SMILES	HSV augment	HSV augment primary fold	PKD1 kinase inh	Insulin prom inh	Insulin prom inh cell count	RGS16-Gao	GALR2 ag
Cc1nc(-c2ccc(C(=O)O)cc2)cs1	i	0.73	-1	.	.	97	-1.7
CCOc1cccc(CN2CCN(CCc3ccccc3)C(CCO)C2)c1O (centres undefined)	i	0.98	-11	.	.	112	.
Cn1c(CC(=O)Nc2ccccc2)nnc1SCC(=O)c1ccccc1	i	0.69	-3	-23	42	91	-2.5
COc1ccccc1CNCC(=O)Nc1ccccc1-n1cccc1	i	0.99	-6	.	.	105	.
CCOCCCNC(=O)C(NC(=O)c1ccc(=O)[nH]c1)c1ccccc1 (centres undefined)	i	0.86	-1	52	112	100	-0.9
N#Cc1nc(-c2ccccc2F)oc1NCCN1CCOCC1	i	1.1	2	.	.	275	-2.4
Cc1cc(C)n(-c2nnc3n2N=C(c2ccccc2)CS3)n1	i	1	1	-58	130	112	-2.8
CC(=O)Nc1cccc(N(C(=O)C2COc3ccccc3O2)C(C(=O)NC2CCCCC2)c2cn(C)nc2C)c1 (centres undefined)	i	1	1	15	115	98	.
O=c1cc(-c2ccco2)nc(-c2cccs2)o1	i	0.88	1	.	.	108	-4.3
COC(=O)c1ccccc1NC(=O)Oc1ccc(C(C)C)cc1	i	1.5	10	38	94	115	-0.7
CCOc1ccccc1NC(=O)CSc1ccc2nnc(-c3cccnc3)n2n1	i	0.91	-1	-125	51	112	.
CCOC(=O)N1CCN(c2cc(C)c(C(C)=O)cc2F)CC1	i	0.9	-4	18	88	97	-2.2
COc1ccccc1C(=O)Nc1ccc(Oc2nnc(-c3ccc(C)cc3)c3ccccc23)cc1	i	0.91	1	.	.	98	-0.8
Cc1ccc(OCC(=O)N/N=C\c2cn(Cc3ccccc3)c3ccccc23)cc1C	.	.	2	.	.	97	-3.9
O=C(NNC(=O)C(Cl)Cl)c1cnn(-c2ccccc2)c1C(F)(F)F	i	0.93	.	.	.	100	.
Cc1ccc(-n2cccc2C(=S)N=P(N(C)C)(N(C)C)N(C)C)cc1	i	1	-4	.	.	99	-1.5
CC(C)(C)Sc1ccc(N)nc1	i	0.86	4	23	88	105	-1.7
COc1cc2c(C(=O)NCCCN3CCN(c4cccc(Cl)c4)CC3)cn(C)c(=O)c2cc1OC	i	0.97	0	-3	51	99	-0.5
Cc1ccc(SCC(=O)NCCCc2ccccc2)cc1	i	1	-4	.	.	100	.
CCc1nnc(NC(=O)CN2C(=O)CCC2=O)s1	i	0.99	-8	-38	82	107	0.1
O=C1/C(=C/Nc2ccc3c(c2)OCO3)CCc2ccccc21	i	1	-3	.	.	76	-2.4
COC(=O)Oc1ccc(/C=N/NC(=O)CSCc2ccccc2Br)cc1OC	i	0.89	-3	-21	82	108	0.1
COc1ccc(S(=O)(=O)/N=C2/NC(=O)/C(=C/c3ccco3)S2)cc1	i	1.1	-7	-44	95	114	0.1
CCOc1cc(/C=N/NC(=O)C(N)=O)cc(Br)c1O	i	0.89	10	.	.	104	.
Cc1ccccc1NC(=O)c1ccc(Cl)c(NC(=O)c2cccnc2)c1	i	0.87	-11	.	.	120	.
COc1cccc(NC(=O)CSc2nnc(CNC(=O)c3ccccc3)n2C)c1	i	1	-2	-25	86	100	-2.8
Cc1ccc(S(=O)(=O)N(C)C)cc1NC(=O)CN1C(=O)NC2(CCCc3ccccc32)C1=O (centres undefined)	i	0.94	-15	18	128	41	0.1
Cc1ccc(C)c(NC(=S)N(CCN(C)C)C(C)c2ccccn2)c1 (centres undefined)	i	1.1	7	-55	79	95	.
COCCn1c(C)cc(C(=O)CSc2ncn[nH]2)c1C	i	1.2	-1	.	.	100	-1.6
O=C(OCCN1CCCC1=O)c1cc(F)c(F)c(F)c1F	i	1.1	-2	.	.	99	0.8
CCC(Sc1nc2ccccc2o1)C(=O)O (centres undefined)	i	1	8	.	.	98	.
COc1ccc(-c2csc(-c3cc4ccccc4oc3=N)n2)cc1	i	1.1	-1	0	68	119	2.6
O=S(=O)(Cc1ccccc1Cl)c1ncn[nH]1	i	1.1	.	.	.	99	.
O=C(NC1CCCCCC1)c1cccnc1Sc1ccc(Cl)cc1	i	1.1	12	.	.	90	3.6
Cc1nn(C(=O)CCCn2cc([N+](=O)[O-])cn2)c(C)c1Cl	i	0.85	2	6	110	96	.
Cc1ccc(C(C(=O)NC2CCCCC2)N(CC2CCCO2)C(=O)CNC(=O)c2cccs2)cc1 (centres undefined)	i	0.93	-6	-23	128	100	0.1
CCOc1cc(C(=O)CSc2nnc(CNc3ccc(Cl)cc3)o2)ccc1NC(=O)CC	i	0.76	-10	.	.	97	7.8*
CCc1cc2c(=O)[nH]c(CC(N)=O)nc2s1	i	1.1	1	-24	84	102	.
COc1ccc(Cc2noc(CN(C)Cc3ccc(-n4cccn4)cc3)n2)cc1OC	i	1	-5	.	.	104	.
COc1ccc(C2/C=C\CN(C(=O)Oc3ccc(C(F)(F)F)cc3)CC(=O)N2Cc2ccc(F)cc2)cc1 (centres undefined)	i	0.86	.	.	.	103	.
COc1ccc(NC(=O)CCCC(=O)OCC(F)(F)C(F)F)cc1	i	0.99	-1	.	.	.	-0.2
Cc1cc(C(=O)COC(=O)c2cc(O)c3ccccc3c2O)c(C)n1CC1CCCO1 (centres undefined)	i	0.89	-5	.	.	81	.
O=C1c2ccccc2-c2onc3ccc(NCCCn4ccnc4)c1c23	?	.	94*	-57	97	75	0.5
O=C1N=C(N2CCOCC2)S/C1=C\c1ccncc1	i	1	.	.	.	102	.
CN(C)CCNc1oc(/C=C/c2ccccc2)nc1C#N	i	1	-3	.	.	102	0.6

Results in HSV augment primary fold and GALR2 ag (2 entries from above):
mol	HSV augment primary fold	GALR2 ag
O=C1N=C(N2CCOCC2)S/C1=C\c1ccncc1	1	.
CN(C)CCNc1oc(/C=C/c2ccccc2)nc1C#N	1	0.6

(further entries)
SMILES	HSV augment	HSV augment primary fold	PKD1 kinase inh	Insulin prom inh	Insulin prom inh cell count	RGS16-Gao	GALR2 ag
COCCN(C(=O)C1CC1)c1nnc(-c2ccc(C)cc2)s1	i	0.93	0	36	94	99	-0.2
O=C(CCCc1ccccc1)Nc1cccnc1	i	0.97	0	18	107	128	-1.5
CCOc1ccc2nc(N3CCC(C(=O)Nc4nnc(CC)s4)CC3)sc2c1	i	1	1	43	66	104	0.4
FC(F)(F)c1cccc(Cn2cnc(NC(=S)NCCc3ccccc3)n2)c1	i	1.1	-6	-16	110	101	.
CCOC(=O)C1CCCN(C(=O)c2ccc(Cl)c(S(=O)(=O)N3CCCCCC3)c2)C1 (centres undefined)	i	1.1	-1	.	.	102	.
O=C(/C=C\c1ccccc1OC(=O)c1ccccc1F)c1cc2ccccc2o1	i	0.81	1	.	.	101	-1.2
O=C1Nc2ccc(S(=O)(=O)N3CCCC3)c3ccc(S(=O)(=O)N4CCCC4)c1c23	i	0.8	-5	.	.	104	-0.3
COc1ccccc1C/C(N)=N/OC(=O)COc1ccc2ccccc2c1	i	0.95	-4	47	67	103	-2.7
O=C1CN(C(=O)CNCc2ccc(Cl)cc2)c2ccccc2N1	i	0.99	.	.	.	104	.
Cc1nnn(C23C[C@@H]4C[C@@H](CC(C(=O)N5CCN(c6ccccc6)CC5)(C4)C2)C3)n1	i	1.1	.	.	.	102	.
COC(=O)c1cccc(NC(=O)CCCOc2ccccc2)c1	i	0.92	-6	6	132	94	-2.1
O=C(NNC(=S)NC(=O)c1cccnc1)c1ccc(F)cc1	i	0.93	.	.	.	92	.
COCCNC(=O)CS(=O)(=O)Cc1nc(-c2ccc(C)cc2)oc1C	i	1	-17	.	.	100	-1.2
CSC1=NCCN1C(=O)COc1ccc2ccccc2c1	i	0.71	-5	.	.	99	-0.8
O=c1c2ccccc2ncn1-c1ccccc1F	i	1.4	3	39	108	102	.

One compound at a time (already shown). Values in the order: HSV augment	HSV augment primary fold	PKD1 kinase inh	Insulin prom inh	Insulin prom inh cell count	RGS16-Gao	GALR2 ag
Cc1nn(C(=O)CCCn2cc([N+](=O)[O-])cn2)c(C)c1Cl is listed as i	0.85	2	6	110	96	.
O=C(CCCc1ccccc1)Nc1cccnc1 is listed as i	0.97	0	18	107	128	-1.5
O=C1CN(C(=O)CNCc2ccc(Cl)cc2)c2ccccc2N1 is listed as i	0.99	.	.	.	104	.
